# Six1-Eya2 inh: qHTS Assay for Inhibitors of the Six1/Eya2 Interaction; Homeobox protein SIX1 (Homo sapiens) + Protein phosphatase EYA2 (Homo sapiens), …; AlphaScreen GST-Six1/His-Eya2 binding, biochemical; stronger effect = lower value; control for the full effect not named in the record; activity change, % (concentration not given with the values); 360,000 tested, 0.56% active; in the data active = activity change below about -65%; inconclusive = about -30% to -65%; inactive = above about -30%; note: % is set by controls: 0 for no effect and ±100 for the full control effect
#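 Six1/Eya2 binding was read as AlphaScreen signal after compounds were pinned into GST-Six1 plus His-tagged Eya2 (5X stock 250/500 nM) in pH 8.0 Tris/NaCl/TCEP buffer, beads added, then incubated 1 h, 37 C, dark.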
# D2 ag: Beta-Arrestin HTS for Positive Allosteric Modulators of the Human D2 Dopamine Receptor: Agonists; D(2) dopamine receptor (Homo sapiens), P14416; DiscoveRx PathHunter D2 beta-arrestin, luminescence, 90 min; 100% = 57 uM dopamine signal; activation, % (concentration not given with the values); 360,000 tested, 0.084% active; AID 624465, 2012; in the data active = activation above about 40%; inconclusive = about 15% to 40%; inactive = below about 15%; note: compound concentration not given in the record; the text of the record calls up to 30% inactive
# Target sequence (P14416 whole entry, looked up): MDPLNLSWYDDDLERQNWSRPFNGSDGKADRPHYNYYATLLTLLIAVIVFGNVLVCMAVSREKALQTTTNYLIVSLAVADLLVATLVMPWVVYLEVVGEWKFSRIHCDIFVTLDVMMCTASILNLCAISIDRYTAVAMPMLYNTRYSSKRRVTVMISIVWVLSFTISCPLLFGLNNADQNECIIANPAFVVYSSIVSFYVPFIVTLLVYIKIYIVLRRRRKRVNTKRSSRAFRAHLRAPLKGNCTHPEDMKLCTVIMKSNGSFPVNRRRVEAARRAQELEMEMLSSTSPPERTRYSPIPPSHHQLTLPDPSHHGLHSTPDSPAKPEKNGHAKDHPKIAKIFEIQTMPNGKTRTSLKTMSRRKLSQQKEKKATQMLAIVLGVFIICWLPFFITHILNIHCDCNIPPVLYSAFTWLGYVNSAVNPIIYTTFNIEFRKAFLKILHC
#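 Agonist mode: compounds alone added to overnight-plated D2 PathHunter cells for 90 min at 37 C, with 57 uM final dopamine (EC100) defining full response. Beta-arrestin recruitment detected by chemiluminescent reagent, read after 1 h at ambient temperature.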
# CtBP-E1A blk: qHTS Assay for Inhibitors of the CtBP/E1A Interaction | CtBP / adenovirus E1A interaction (AlphaScreen) | AID 651724, 2012 | AlphaScreen GST-E1A/His-CtBP binding, 1536-well; stronger effect = lower value; control for the full effect not named in the record | 340,000 tested, 0.49% active | activity change, % (no concentration beside the values); in the data active means activity change below about -65%; inconclusive means about -30% to -65%; inactive means above about -30%; note: % is set by controls: 0 for no effect and ±100 for the full control effect; compound concentration not given in the record
#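 Steps: dispense buffer (Tris pH 8.0, NaCl 300 mM, TCEP 1 mM, BSA, Tween 20); add 5X protein mix (GST-E1A, His-CtBP, 125 nM each); pin 23 nL compound; 2 h at 37 °C, dark; add 5X beads (50 ug/mL); 1 h; read.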
# D2 potentiator: Beta-Arrestin HTS for Positive Allosteric Modulators of the Human D2 Dopamine Receptor: Potentiators; D(2) dopamine receptor (Homo sapiens), P14416; DiscoveRx D2 beta-arrestin cells, luminescence, 90 min; 100% = 57 uM dopamine signal; 360,000 tested, 0.23% active; potentiation, % (no concentration beside the values); active = potentiation of 50% or more; inconclusive = 30% to 50%; inactive = 30% or less;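 note: compound concentration not given in the record; tested on top of an EC20 dose of dopamine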
#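 PathHunter D2 cells, attached overnight at 37 deg C, received compound in DMSO plus dopamine at EC20 (50 nM final) for 90 min at 37 deg C. Beta-arrestin recruitment was read as luminescence after 1 h with detection reagent at ambient temperature.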
# PINK1 modulator: A Quantitative High throughput Screen to Identify Chemical Modulators of PINK1 Expression | PINK1 immunofluorescence, high-content cytometry, 24 h | Potency, µM (titrated, usually from 76.6 µM), for the others: at the top dose activation (PINK1 increase), actives largely listed as activators | 410,000 tested, 0.2% active | AID 624263, 2012; active = well fitted activation curve with a large enough effect; inconclusive = small, poorly fitted or top-dose-only effect; inactive = flat fitted curve, though single readings scatter; cell line not stated here;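 note: potency is the fitted concentration of half-maximal effect; % of control where 0% means no effect; nearly all actives have a fitted effect of over 65% in size; a mitochondrial uncoupler was the plate control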
#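 Stable cell line, 250 cells/well, 12 h attachment; compounds pinned at 5 concentrations, 24 h; CCCP control. Fixed with nuclear dye, primary antibodies 12 h at 10 degrees C, secondary plus cell stain; laser-scanning cytometer read.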
# TRPML1 ag: qHTS for Agonists of the Human Mucolipin Transient Receptor Potential 1 (TRPML1); TRPML1-expressing cells, Ca2+ dye fluorescence, FDSS; host cell line not named in the record; reference of the full effect not given here; activation, % (concentration not given with the values); 410,000 tested, 0.12% active; AID 624414, 2012; in the data active = activation above about 50%; inconclusive = about 30% to 50%; inactive = below about 30%; note: 0% is about no effect; the text of the record puts the active cut at 80%
#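 Calcium fluorescence on an FDSS kinetic reader gave the read-out. Tet-induced TRPML1-DL cells were plated overnight, dye-loaded (Ca8 with quencher, 45-90 min, room temperature, dark), then read 110 s after compound addition, and again 110 s after 4uM final 54-4 (EC80).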
# * = called active by the depositor; ? = inconclusive; · = not tested or not shown; & = joins results of further samples; [ ] = another dose, or the depositor's remark.
SMILES,Six1-Eya2 inh,D2 ag,CtBP-E1A blk,D2 potentiator,PINK1 modulator,TRPML1 ag
CCCOC(=O)C1=C(C)NC2=C(C(=O)CCC2)C1c1ccc(N(C)C)cc1 (stereo not given),-17,3.2,-11,-4,2.1%,-0.3
COc1cc(C(F)(F)F)c(C(=O)N(C)Cc2cc(Cl)cc(Cl)c2)cn1,3,-2.7,·,1,1.2%,2.1
O=C(CCN1C(=O)C2CCCCC2C1=O)Nc1nc2c(F)cc(F)cc2s1 (stereo not given),10,-1.2,·,0,?,-0.4
Cc1ccc(S(=O)(=O)N(CC(=O)N2CCOCC2)c2ccc(C(C)C)cc2)cc1,13,0.9,9,-6,0.1%,-0.1
CC(C)(C)OC(=O)NCCc1nnc(SCC(=O)c2ccc(Cl)cc2)o1,1,-0.1,-2,-4,-1.9%,2.4
N#Cc1cccc(C(c2nnnn2C2CCCC2)N2CCCCCC2)c1 (stereo not given),-4,-3.1,-3,-2,-0.8%,2.6
COc1cc(C)nc(NS(=O)(=O)c2ccccc2Cl)n1,-15,-1.5,10,-33,4.4%,-1.4
O=C(CCC1CCN(Cc2ccccc2O)CC1)NC1CC1,-1,-1.2,·,-14,1.4%,·
COc1ccc(-c2nc(-n3c(C)c(C(C)=O)c(C(C)=O)c3C)sc2C)cc1OC,-3,-2.9,-4,4,-2.4%[38.3 µM],0.1
Cc1cc(NC(=O)CCC(=O)N(C2CC2)C2(C(=O)NC3CCCC3)CCC(C)CC2)no1 (stereo not given),5,-2.9,1,-6,-0.4%,-1.0
C=CCn1c(CCC(=O)O)ccc1-c1ccccc1,-10,0.5,-16,-8,-0.5%[38.3 µM],-0.2
CN(C)/C=C1\NC(=S)N(c2ccccc2)C1=O,-1,-3.3,0,-6,1.4%,-0.2
NC(=O)CC(NC(=O)Cc1cccc2ccccc12)c1ccc(NCCN2CCCCC2)c([N+](=O)[O-])c1 (stereo not given),42,-3.7,-11,-14,-0.4%,-0.2
FC(F)(F)c1cccc(-c2cc(C3CCNCC3)[nH]n2)c1,8,-1.4,6,-8,2.8%,-1.3
CC(C)N1CCN(Cc2coc3ccccc3c2=O)CC1CCO (stereo not given),-21,-1.3,-17,-1,-0.8%,-0.2
CCCCc1c(C)nc2c(OC)cccc2c1SCCC(=O)O,12,0.4,16,-13,-0.7%,0.8
Cc1ccc(N(CC(=O)Nc2ccccc2C(=O)N2CCOCC2)S(C)(=O)=O)cc1,7,-1.6,7,-1,-0.6%,2.3
Cc1cc(=O)oc2cc(OCC(=O)Nc3ccc(CN4CCOCC4)cc3)ccc12,6,-1.6,1,-3,1.6%,-0.4
COc1ccc(-c2cc(C(=O)NC3CCCCC3)no2)cc1OC,-1,1.5,2,-1,-0.9%,1.7
COc1cc(-c2nnc(SCC3(c4ccccc4)OCCO3)o2)cc(OC)c1OC,-5,0.5,2,1,1.5%,0.8
O=C(CCSc1ccccc1)NCC1CCCO1 (stereo not given),5,-1.2,6,-6,-1.9%,0.2
COc1cc(CNCCNCC(C)O)ccc1OCc1ccc(Cl)nc1 (stereo not given),1,0.3,1,-14,1.8%,-0.3
CCCC[N+](CC#CCO)(CC#Cc1ccccc1)CCCC,-1,-2.1,-1,-8,-1.3%,0.1
Cc1c(CNC(=O)C2CCC(=O)N(CCc3ccccc3)C2)cnn1C (stereo not given),12,-2.6,-6,-6,-2.8%,0.9
Cc1[nH]c2ccccc2c1/C=N/NC(=S)NCc1ccccc1,-14,3.1,·,-17,9.3%,-0.1
CCCc1cc(C(=O)Nc2ccccc2SC)no1,5,-3.4,29,-6,5.5%,2.4
COc1cc(C(c2nnnn2C(C)(C)C)N2CCN(C)CC2)cc(OC)c1OC (stereo not given),12,-1.6,2,4,0.9%,-0.6
COc1cccc(N/C=C/c2onc(C)c2[N+](=O)[O-])c1,-5,-0.2,7,-2,0.7%,0.7
O=C(NCC1COc2ccccc2O1)C1CCCN(S(=O)(=O)c2cccc3nsnc23)C1 (stereo not given),-4,-1.2,1,-5,5.9%,0.7
COc1ccc(OC)c(/C=C2\S/C(=N/NC(=O)c3ccc4ccccc4c3)NC2=O)c1,0,-2.5,-3,-5,28%,0.9

# The final four compounds of the section before are carried over, then new ones follow.
SMILES,Six1-Eya2 inh,D2 ag,CtBP-E1A blk,D2 potentiator,PINK1 modulator,TRPML1 ag
COc1cc(C(c2nnnn2C(C)(C)C)N2CCN(C)CC2)cc(OC)c1OC (stereo not given),12,-1.6,2,4,0.9%,-0.6
COc1cccc(N/C=C/c2onc(C)c2[N+](=O)[O-])c1,-5,-0.2,7,-2,0.7%,0.7
O=C(NCC1COc2ccccc2O1)C1CCCN(S(=O)(=O)c2cccc3nsnc23)C1 (stereo not given),-4,-1.2,1,-5,5.9%,0.7
COc1ccc(OC)c(/C=C2\S/C(=N/NC(=O)c3ccc4ccccc4c3)NC2=O)c1,0,-2.5,-3,-5,28%,0.9
COc1ccc(C(=O)Oc2cc(/C=N/NS(=O)(=O)c3ccc(C)cc3)ccc2OC)cc1,3,-1.6,5,-2,4.4%,1.0
Cc1nn(CC(=O)NNC(=O)c2ccccc2F)c([N+](=O)[O-])c1Br,-8,-7.4,2,-8,-0.3%,-1.0
N=C1C(c2nc3ccccc3s2)=C(O)CN1NC(=O)c1ccccc1[N+](=O)[O-],-6,0.1,·,-5,2.1%,-0.1
O=C1C2C3C=CC(C3)C2C(=O)N1/N=C/c1ccc(-c2ccccc2[N+](=O)[O-])o1 (stereo not given),-14,-5.6,-12,-21,3.9%,0.0
CC1(C)CC(=O)c2cnc(N)nc2C1,-1,-1.2,8,-14,-1.3%,0.6
Cn1c(=O)c2cc(NC(=O)NCc3ccc(Cl)cc3Cl)ccc2n1Cc1ccccc1,16,5.2,-20,-7,7.6%,-0.3
O=C(Cc1ccc(NC(=O)C2CCN(C(=O)C3CCCCC3)CC2)cc1)Nc1ccc(C(=O)N2CCOCC2)cc1,10,3.7,8,-2,0.3%,2.9
CCOc1ccc(NC(=O)CSc2nnc(CNC(=O)c3ccco3)o2)cc1,6,-1.0,-1,-1,-2.0%,0.6
COc1ccc(C(=O)NCc2cn3ccsc3n2)cc1OC,4,-3.0,0,-2,1.5%,0.0
CC(C)c1ccc(C(C(=O)NC2CCCC2)N(C(=O)c2csnn2)C2CC2)cc1 (stereo not given),3,-4.1,22,-9,0.3%,-0.9
Cc1cccc(C)c1-c1ccc(CN2C(CC(C)C)C(=O)N(Cc3cn(CCO)nn3)CCS2(=O)=O)cc1 (stereo not given),-4,6.5,5,8,2.6%,1.6
CC1COc2ccccc2N1C(=O)c1ccccc1Cl (stereo not given),1,?,-12,1,1.9%,1.3
N#Cc1cnc(Sc2ccccc2)nc1,-1,-5.6,0,-3,-0.8%,-1.3
COCCN(C(=O)Cc1ccc(OC)c(OC)c1)c1nc(-c2cc(OC)ccc2OC)cs1,-5,-0.7,4,2,1.1%,0.0
COc1cc2ccc(=O)oc2c(O[C@@H]2O[C@H](CO)[C@@H](O)[C@H](O)[C@H]2O)c1O,2&-5,2.0&2.5,5,2&3,-0.4%&0.7%,3.5&-0.1
Cc1nnc(Nc2ccc(Cl)c(C(F)(F)F)c2)[nH]c1=O,30,-4.6,-21,1,-3.0%,0.6
O=c1ccccn1Cc1c(Cl)cccc1Cl,0,2.9,0,1,0.0%[38.3 µM],0.3
CCCC1=NN2C(=N)/C(=C\c3cc(C)n(Cc4ccccc4)c3C)C(=O)N=C2S1,1,-1.5,·,-1,1.1%,5.2
Cc1cccc(NC(=O)Nc2ccc3c(c2)N(C)C(=O)CS3)n1,3,3.0,-3,-2,16%,-0.2
CC1(C)CC(=O)c2c(nn(-c3ccccc3)c2N)C1,3,1.1,6,1,?,0.6
CCOC(=O)c1ccccc1NC(=O)C1=COCCO1,6,-0.3,7,13,0.6%,-0.8
CS(=O)(=O)N1CCN(C(=O)c2cc(-c3cccnc3)nc3ccc(Cl)cc23)CC1,4,-17,·,3,0.3%,0.4
Cc1cccc(C(=O)N2CCC(=O)N([C@H](COCc3cccc(C(F)(F)F)c3)Cc3ccccc3)CC2)c1,-4,·,0,·,28%,0.1
CC(C)OC(=O)CCC(=O)Nc1ccc(F)cc1,-2,-3.5,-5,-6,-0.7%,-0.7
O=S(=O)(c1ccc(Br)s1)N1CCC(Cc2ccccc2)CC1,30,-0.8,46,-9,-3.1%[38.3 µM],3.6
CC(C)[C@H](NC(=O)c1ccccc1)C(=O)OCc1nnc(-c2ccccc2)o1,2,-3.9,0,-10,-0.8%,-1.0

# An excerpt from above in order of the CtBP-E1A blk value, smallest number first:
structure | Six1-Eya2 inh | D2 ag | CtBP-E1A blk | D2 potentiator | PINK1 modulator
Cc1nn(CC(=O)NNC(=O)c2ccccc2F)c([N+](=O)[O-])c1Br | -8 | -7.4 | 2 | -8 | -0.3%
Cc1ccc(N(CC(=O)Nc2ccccc2C(=O)N2CCOCC2)S(C)(=O)=O)cc1 | 7 | -1.6 | 7 | -1 | -0.6%
COc1cc(C)nc(NS(=O)(=O)c2ccccc2Cl)n1 | -15 | -1.5 | 10 | -33 | 4.4%
